Screens deposited in PubChem by Broad Institute.
Vaccinia inh: blocks a specific stage of Vaccinia orthopoxvirus infection; Vaccinia-infected cells, mCherry/Venus stage reporter fluorescence; hits give low values; some inactives read as strong as hits; activity change (mCherry), % (test concentration not listed); actives 0.01% (n = 89,000);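 active means mCherry past -33% and 40 or more points under the early reporter, replicates agreeing; inconclusive means past -33% without that gap or agreement; tested in A549 cells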;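 further: scaled between vehicle wells and reference inhibitor wells; 23 nL library stock went into each well; one replicate is shown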
Vaccinia inh Venus: recorded beside Vaccinia inh, whose call it bears; activity change (Venus), %; measured here: Venus reporter, other viral stage;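 negative = less Venus signal; first of two replicates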
An asterisk follows results filed as active; ? = inconclusive; . = no result given. Some of the compounds tested (hit frequency here may not be typical).

SMILES | Vaccinia inh | Vaccinia inh Venus
COc1ccccc1NC(=O)N1C[C@@H](O)COC[C@@H]2O[C@@H](CC(=O)NCCc3ccncc3)CC[C@H]21 | 2 | -1
COc1ccc(S(=O)(=O)Nc2ccc3c(c2)C(=O)N(C)C[C@@H](OC)[C@@H](C)CN[C@@H](C)CO3)cc1 | 15 | 1
O=C(C[C@H]1CC[C@H]2[C@@H](COC[C@@H](O)CN2S(=O)(=O)c2ccccc2)O1)NCc1ccc2c(c1)OCO2 | 12 | 10
C[C@H](CO)N1C[C@H](C)[C@H](CN(C)C(=O)CN(C)C)Oc2ncc(C#CC3(O)CCCC3)cc2C1=O | 26 | 6
CC(C)NC(=O)N(C)C[C@@H]1OCCCC[C@H](C)Oc2ccc(NC(=O)C3CCCCC3)cc2C(=O)N([C@@H](C)CO)C[C@H]1C | 17 | 6
CCCN1C[C@H](C)[C@H](OC)CN(C)C(=O)c2ccc(NS(C)(=O)=O)cc2OC[C@@H]1C | -1 | 6
Cc1ccc(-c2cnc3c(c2)C(=O)N([C@@H](C)CO)C[C@@H](C)[C@H](CN(C)C(=O)c2ccncc2)O3)cc1 | 8 | 3
O=C(C[C@H]1CC[C@H]2[C@@H](COC[C@H](O)CN2Cc2cc(F)cc(F)c2)O1)NC1CCC1 | 3 | 3
C[C@@H]1CN([C@@H](C)CO)C(=O)c2cc(-c3ccccc3F)cnc2O[C@@H]1CN(C)C(=O)C1CCOCC1 | 8 | 4
O=C(Cc1cccnc1)N1[C@H](CNCC2CCC2)[C@H](c2ccccc2)[C@@H]1CO | 1 | 5
COc1cccc(C#Cc2ccc([C@H]3[C@@H](CO)N4C(=O)CN(C(=O)Cc5cccnc5)C[C@@H]34)cc2)c1 | -14 | -11
C[C@H](CO)N1C[C@H](C)[C@H](CN(C)C(=O)NC2CCCCC2)Oc2ccc(NC(=O)Nc3cccc4ccccc34)cc2CC1=O | 3 | 4
Cc1ccc(S(=O)(=O)N(C)C[C@@H]2Oc3ccc(NC(=O)Nc4ccccc4)cc3C(=O)N([C@@H](C)CO)C[C@@H]2C)cc1 | ? | .
COc1cccc(C#Cc2ccc([C@@H]3[C@H](CO)N4C(=O)CN(C(=O)Cc5cccnc5)C[C@@H]34)cc2)c1 | ? | .
C[C@H]1CN([C@@H](C)CO)S(=O)(=O)c2ccc(C3=CCCCC3)cc2O[C@@H]1CN(C)C(=O)C1CC1 | -28 | -20
C[C@@H]1CCCCO[C@H](CN(C)Cc2ccc(Cl)c(Cl)c2)[C@H](C)CN([C@@H](C)CO)C(=O)c2cc(NC(=O)C3CCCCC3)ccc2O1 | ? | .
C[C@@H]1CCCCO[C@H](CN(C)C(=O)c2ccccc2)[C@H](C)CN([C@@H](C)CO)C(=O)c2cc(NS(=O)(=O)c3ccc(F)cc3)ccc2O1 | ? | .
C[C@H]1CN([C@@H](C)CO)S(=O)(=O)c2ccc(-c3ccc(C#N)cc3)cc2O[C@H]1CN(C)C | -7 | -3
CC(C)NC(=O)Nc1cccc2c1O[C@H](CN(C)Cc1ccc(Oc3ccccc3)cc1)[C@@H](C)CN([C@@H](C)CO)C2=O | -30 | -26
C[C@@H]1CN([C@@H](C)CO)C(=O)CCCn2nncc2CO[C@@H]1CN(C)Cc1ccc(-c2ccccc2)cc1 | ? | .
C[C@@H]1CN([C@H](C)CO)C(=O)c2cccc(NC(=O)NC3CCCCC3)c2O[C@@H]1CN(C)Cc1ccc(C(=O)Nc2ccccc2N)cc1 | -4 | -2
CO[C@@H]1CN(C)C(=O)c2cc(NC(=O)Nc3c(C)noc3C)ccc2OC[C@@H](C)N(C(=O)Nc2cccc(Cl)c2)C[C@H]1C | 9 | 12
CC(C)NC(=O)Nc1ccc2c(c1)C(=O)N([C@H](C)CO)C[C@H](C)[C@@H](CN(C)S(C)(=O)=O)O2 | 6 | 13
C[C@@H]1CN([C@@H](C)CO)C(=O)c2ccccc2-c2ccccc2CO[C@H]1CN(C)C(=O)[C@@H](Cc1ccccc1)N(C)C | 6 | 3
COc1ccc(NC(=O)N(C)C[C@H]2OCCCC[C@H](C)Oc3ccc(NC(=O)C4CCCCC4)cc3C(=O)N([C@@H](C)CO)C[C@@H]2C)cc1 | ? | .
C[C@H]1CN([C@@H](C)CO)C(=O)c2cc(Br)cnc2O[C@@H]1CN(C)C(=O)C1CCC1 | 15 | 3
CO[C@@H]1CN(C)C(=O)c2ccc(NC(=O)c3nc4ccccc4s3)cc2OC[C@@H](C)N(Cc2cncnc2)C[C@H]1C | -22 | -11
Cc1ccccc1S(=O)(=O)N1[C@H](C#N)[C@@H](c2ccccc2)[C@H]1CO | 6 | 2
C[C@@H]1CN([C@@H](C)CO)C(=O)Cc2cc(NC(=O)c3ccncc3)ccc2O[C@H]1CN(C)Cc1ccc2c(c1)OCO2 | 9 | 4
COCC(=O)N1CC2(C1)CN(S(C)(=O)=O)[C@H](CO)c1[nH]c3cc(OC)ccc3c12 | 4 | 4
CC(C)C#Cc1cnc2c(c1)C(=O)N([C@@H](C)CO)C[C@@H](C)[C@@H](CN(C)Cc1ccccc1F)O2 | -9 | -1
CCC(=O)N1CC2(CCN(C(C)=O)CC2)c2c([nH]c3cc(OC)ccc23)[C@@H]1CO | 11 | 1
C[C@H](CO)N1C[C@H](C)[C@@H](CN(C)C(=O)C2CCC2)Oc2cc(C#Cc3ccncc3)ccc2S1(=O)=O | ? | .
CCC(=O)N1CC[C@H]2[C@H](CO)Nc3ccc(C#Cc4cccnc4)cc3[C@H]21 | 27 | 9
C[C@@H]1CN([C@@H](C)CO)S(=O)(=O)c2ccc(C3=CCCCC3)cc2O[C@@H]1CN(C)C(=O)Cc1ccccc1 | ? | .
CCCNC(=O)[C@H]1[C@H](CO)[C@H]2Cn3c(ccc(-c4ccc(F)cc4)c3=O)[C@@H]1N2CC | 6 | 2
CCCNC(=O)C[C@H]1CC[C@@H]2[C@H](COc3ccc(NC(=O)Cc4ccccc4)cc3C(=O)N2C)O1 | 2 | 4
O=C(C[C@H]1C=C[C@@H](NC(=O)C2CC2)[C@@H](CO)O1)NC1CCC1 | 3 | 1
O=C(C[C@@H]1C=C[C@H](NC(=O)Nc2ccc(F)cc2)[C@H](CO)O1)NCc1ccccn1 | 3 | 1
COc1cccc(C#Cc2ccc([C@H]3[C@H](CO)N4C(=O)CN(S(=O)(=O)c5ccccc5C)C[C@@H]34)cc2)c1 | ? | .

Some of these compounds in order of formula weight, descending:
SMILES | Vaccinia inh | Vaccinia inh Venus
C[C@@H]1CCCCO[C@H](CN(C)Cc2ccc(Cl)c(Cl)c2)[C@H](C)CN([C@@H](C)CO)C(=O)c2cc(NC(=O)C3CCCCC3)ccc2O1 | ? | .
C[C@@H]1CCCCO[C@H](CN(C)C(=O)c2ccccc2)[C@H](C)CN([C@@H](C)CO)C(=O)c2cc(NS(=O)(=O)c3ccc(F)cc3)ccc2O1 | ? | .
COc1ccc(NC(=O)N(C)C[C@H]2OCCCC[C@H](C)Oc3ccc(NC(=O)C4CCCCC4)cc3C(=O)N([C@@H](C)CO)C[C@@H]2C)cc1 | ? | .
Cc1ccc(S(=O)(=O)N(C)C[C@@H]2Oc3ccc(NC(=O)Nc4ccccc4)cc3C(=O)N([C@@H](C)CO)C[C@@H]2C)cc1 | ? | .
C[C@@H]1CN([C@@H](C)CO)C(=O)Cc2cc(NC(=O)c3ccncc3)ccc2O[C@H]1CN(C)Cc1ccc2c(c1)OCO2 | 9 | 4
C[C@H](CO)N1C[C@H](C)[C@H](CN(C)C(=O)CN(C)C)Oc2ncc(C#CC3(O)CCCC3)cc2C1=O | 26 | 6
CCCNC(=O)C[C@H]1CC[C@@H]2[C@H](COc3ccc(NC(=O)Cc4ccccc4)cc3C(=O)N2C)O1 | 2 | 4
C[C@H]1CN([C@@H](C)CO)C(=O)c2cc(Br)cnc2O[C@@H]1CN(C)C(=O)C1CCC1 | 15 | 3
COCC(=O)N1CC2(C1)CN(S(C)(=O)=O)[C@H](CO)c1[nH]c3cc(OC)ccc3c12 | 4 | 4
O=C(Cc1cccnc1)N1[C@H](CNCC2CCC2)[C@H](c2ccccc2)[C@@H]1CO | 1 | 5
O=C(C[C@H]1C=C[C@@H](NC(=O)C2CC2)[C@@H](CO)O1)NC1CCC1 | 3 | 1

Next part
SMILES | Vaccinia inh | Vaccinia inh Venus
CC(C)C#Cc1ccc2c(c1)O[C@H](CN(C)C(=O)c1ccncc1)[C@H](C)CN([C@H](C)CO)S2(=O)=O | -5 | -3
COc1ccccc1NC(=O)N[C@@H]1CC[C@H](CCNC(=O)c2ccc3c(c2)OCO3)O[C@H]1CO | -9 | -3
NCC[C@H]1CC[C@H](NC(=O)C2CCC2)[C@@H](CO)O1 | 15 | 21
Cn1cnc(CCNC(=O)C[C@@H]2CC[C@H]3[C@@H](COC[C@H](O)CN3C(=O)Nc3ccc(Cl)cc3)O2)c1 | -1 | 1
CN(C)C(=O)C[C@H]1CC[C@H]2[C@@H](COc3ccc(NC(=O)C4CCCC4)cc3C(=O)N2C)O1 | 14 | 6
CCNC(=O)C[C@H]1CC[C@@H]2[C@@H](COc3ccc(NC(=O)c4cscn4)cc3C(=O)N2C)O1 | -5 | 1
COc1ccc(NC(=O)N(C)C[C@H]2OCCCC[C@H](C)Oc3ccc(NC(=O)NC(C)C)cc3C(=O)N([C@@H](C)CO)C[C@@H]2C)cc1 | 5 | 9
C[C@@H]1CN([C@@H](C)CO)C(=O)c2cc(NS(=O)(=O)c3cccs3)ccc2O[C@H]1CN(C)C | 1 | -2
C[C@H](CO)N1C[C@H](C)[C@H](CN(C)C(=O)Cc2ccccn2)Oc2cc(-c3ccc(C(=O)N(C)C)cc3)ccc2S1(=O)=O | 16 | 10
C[C@@H]1CCCCO[C@@H](CN(C)S(C)(=O)=O)[C@H](C)CN([C@@H](C)CO)C(=O)c2cc(NS(=O)(=O)c3ccccc3)ccc2O1 | 21 | 10
CO[C@@H]1CN(C)C(=O)c2ccc(NC(=O)c3cc(C)on3)cc2OC[C@H](C)N(C(=O)C2CC2)C[C@H]1C | 7 | 14
COc1ccc([Si](C)(C)[C@@H]2[C@@H](CC(=O)N3Cc4ccccc4C[C@H]3CO)O[C@]3(C(=O)N(C)c4c(Br)cc(C)cc43)[C@H]2C)cc1 | ? | .
CN(C)C(=O)c1ccc(-c2cccc(-c3nc(C(=O)NC4CCCC4)cc4c3[C@H](CCO)N([S@@](=O)C(C)(C)C)C4)c2)cc1 | -36* | 4.9*
C[C@@H]1CN([C@H](C)CO)C(=O)c2cccc(NC(=O)Nc3ccc4c(c3)OCO4)c2O[C@H]1CN(C)S(C)(=O)=O | 17 | 12
O=C(C[C@@H]1CC[C@H](NC(=O)c2cccc(F)c2)[C@H](CO)O1)NCCN1CCCC1 | -4 | -1
C[C@@H]1CN([C@H](C)CO)C(=O)c2cc(C#Cc3ccc(F)cc3)cnc2O[C@@H]1CN(C)C(=O)Nc1ccc(F)cc1 | -19 | -19
CN(C)CC(=O)N[C@@H]1C=C[C@H](CC(=O)NCc2ccccc2F)O[C@@H]1CO | 22 | 25
CO[C@@H]1CN(C)C(=O)c2ccc(NC(=O)NC(C)C)cc2OC[C@@H](C)N(Cc2ccc(-c3ccccn3)cc2)C[C@H]1C | -21 | -18
CCS(=O)(=O)Nc1ccc2c(c1)C(=O)N(C)C[C@H](OC)[C@@H](C)CN(C(C)=O)[C@H](C)CO2 | 4 | -4
O=C(C[C@@H]1CC[C@@H](NC(=O)Nc2ccc3c(c2)OCO3)[C@@H](CO)O1)NCc1ccc(F)cc1 | 5 | -1
CN(C)C(=O)C[C@@H]1CC[C@H]2[C@H](COc3ccc(NC(=O)Nc4cccc(Cl)c4)cc3C(=O)N2C)O1 | 2 | 9
O=C(N[C@H]1CC[C@@H](CC(=O)N2CCC(Cc3ccccc3)CC2)O[C@@H]1CO)c1cnccn1 | 5 | 5
O=C(C[C@H]1C=C[C@H](NC(=O)c2ccccc2)[C@@H](CO)O1)NCCc1ccncc1 | 3 | 4
CN1CCN(C(=O)C[C@@H]2CC[C@H]3[C@@H](COC[C@H](O)CN3CC3CC3)O2)CC1 | -1 | 3
C[C@H](CO)N1C[C@H](C)[C@@H](CN(C)C(=O)Nc2ccc(C(F)(F)F)cc2)OCCCC[C@H](C)Oc2ccc(NS(=O)(=O)c3cccs3)cc2C1=O | -26 | -15
CN1[C@@H]2c3ccc(-c4ccncc4)c(=O)n3C[C@H]1[C@H](CO)[C@H]2C(=O)NCC1CCCCC1 | -4 | -18
C[C@H]1CN([C@@H](C)CO)C(=O)Cc2cc(NC(=O)CCN3CCOCC3)ccc2O[C@@H]1CN(C)C(=O)Nc1cccc2ccccc12 | 12 | 6
Cc1ccc(S(=O)(=O)N(C)C[C@@H]2Oc3ccc(NC(=O)Cc4ccccc4)cc3CC(=O)N([C@H](C)CO)C[C@H]2C)cc1 | 12 | 8
CC(C)NC(=O)N[C@H]1CC[C@H](CCNS(=O)(=O)c2ccc(F)cc2)O[C@H]1CO | -6 | -1
CN(C)C(=O)C[C@@H]1C=C[C@@H](NC(=O)C2CCC2)[C@H](CO)O1 | -5 | -5
COc1ccc(CN(C)C[C@@H]2Oc3ccc(NS(=O)(=O)c4cn(C)cn4)cc3C(=O)N([C@H](C)CO)C[C@H]2C)cc1 | 6 | -3
CN(C)CC(=O)N[C@H]1CC[C@@H](CCn2cc(C3CC3)nn2)O[C@H]1CO | -2 | -2
C[C@H]1CN([C@@H](C)CO)C(=O)c2cc(NC(=O)Cc3cn(C)c4ccccc34)ccc2O[C@H]1CN(C)CC1CCCCC1 | -20 | -18
C[C@@H]1CN([C@H](C)CO)C(=O)c2cc(NS(=O)(=O)c3cn(C)cn3)ccc2O[C@H]1CN(C)C(=O)Nc1cccc2ccccc12 | 33 | 39
Cc1ccc(S(=O)(=O)N(C)C[C@@H]2Oc3ncccc3C(=O)N([C@H](C)CO)C[C@@H]2C)cc1 | 12 | 10
CNC[C@H]1Oc2ccc(NC(=O)NC(C)C)cc2CC(=O)N([C@H](C)CO)C[C@@H]1C | 9 | 0
C[C@H]1CN([C@@H](C)CO)C(=O)c2cc(-c3ccc(F)cc3)cnc2O[C@H]1CN(C)C(=O)NC1CCCC1 | 7 | -4
